GALR2 ag: GALR2 receptor agonists, primary screen, cell-based. GALR2-expressing cells, agonist activation read-out. activation, %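 (tested at 5 µM)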. hit rate 0.48% among 140,000;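 active = above mean plus 3 SD of all compounds, about 5% in these data, not always enough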;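 note: 0% = vehicle buffer wells and 100% = reference agonist at full effect; tested in CHO reporter cells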
Target sequence (O43603 whole entry, looked up): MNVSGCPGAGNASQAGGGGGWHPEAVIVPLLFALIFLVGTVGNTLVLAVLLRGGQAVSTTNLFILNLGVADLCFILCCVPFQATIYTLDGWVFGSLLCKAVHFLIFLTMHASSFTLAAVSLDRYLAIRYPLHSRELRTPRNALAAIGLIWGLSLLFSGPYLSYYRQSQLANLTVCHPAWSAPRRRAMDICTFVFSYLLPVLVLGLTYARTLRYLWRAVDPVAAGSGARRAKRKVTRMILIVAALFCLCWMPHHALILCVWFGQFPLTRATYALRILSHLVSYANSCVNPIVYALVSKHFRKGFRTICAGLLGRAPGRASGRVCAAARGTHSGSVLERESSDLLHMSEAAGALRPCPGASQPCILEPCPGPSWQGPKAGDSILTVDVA
PKD1 inh: inhibitors of human PKD1 kinase, biochemical, fluorescence polarization; PKD1 kinase fluorescence polarization assay; inhibition, %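 (about 10 µM by stock and volumes)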; hit rate 0.056% among 200,000; Serine/threonine-protein kinase D1 (Homo sapiens), Q15139;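 active = inhibition of 50% or more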;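 note: controls were vehicle for no effect and a reference inhibitor for full effect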
RGS16-Gao: modulators of RGS16 binding to Galphao, primary screen, biochemical, human proteins, multiplexed bead flow cytometry; bead-based flow cytometry RGS16-Galphao binding, fluorescence; actives lie on both sides; Regulator of G-protein signaling 16 (Homo sapiens) + Guanine nucleotide-binding protein …; hit rate 0.38% among 220,000; binding response (% of control), % at 10 µM;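 active = below 25% or above 175%, edge rows of some plates excepted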;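 note: Galphao activated by GDP with aluminum fluoride before binding; 100% = wells without compound and 0% = beads without RGS; some results beyond the cut were filed as inactive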
Target sequence (O15492 whole entry, looked up): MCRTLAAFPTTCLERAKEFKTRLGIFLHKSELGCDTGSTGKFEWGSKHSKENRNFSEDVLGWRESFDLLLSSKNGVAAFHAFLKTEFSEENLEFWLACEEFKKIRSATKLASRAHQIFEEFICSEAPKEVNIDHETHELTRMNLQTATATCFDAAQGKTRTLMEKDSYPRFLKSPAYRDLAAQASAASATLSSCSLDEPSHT
Target sequence (P09471 whole entry, looked up): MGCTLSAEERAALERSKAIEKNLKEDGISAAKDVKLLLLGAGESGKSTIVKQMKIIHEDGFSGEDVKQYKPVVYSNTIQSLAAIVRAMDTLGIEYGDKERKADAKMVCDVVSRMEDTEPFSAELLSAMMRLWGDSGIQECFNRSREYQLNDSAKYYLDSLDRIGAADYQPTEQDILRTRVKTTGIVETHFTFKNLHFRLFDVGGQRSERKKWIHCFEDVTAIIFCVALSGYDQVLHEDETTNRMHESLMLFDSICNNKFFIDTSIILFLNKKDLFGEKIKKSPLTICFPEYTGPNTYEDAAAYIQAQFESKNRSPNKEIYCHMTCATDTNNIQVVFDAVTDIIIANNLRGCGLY
Insulin prom inh: inhibitors of insulin promoter-driven GFP, primary screen, imaging, TRM-6 cells (human fetal islet line), eGFP reporter, cell count; reporter expression induced with tamoxifen; inhibition, % at 2 µM; hit rate 0.9% among 130,000; AID 1273, 2008;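 active = inhibition above the mean plus 3 SD, with well images judged a real hit on visual review, cut at about 60% in these data, passing the limit was not always enough; inconclusive = inhibition over the cutoff but images rejected on review; inactive = inhibition not above the cutoff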
HSV augment: enhancers of HSV replication in host cells, fold increase, host cell viability | HSV replication augmentation in cells | maximum fold increase | hit rate 0.005% among 220,000 | AID 1956, 2009;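 active = peak rise of 1.5-fold or more in the series; inconclusive = self-fluorescent or not available for retest; tested in PC3 cells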;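 note: first round at 10 µM; read as green reporter fluorescence; hits show the peak of a series up to 25 µM; 1 = signal of infected wells without compound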
Insulin prom inh cell count: second read-out of Insulin prom inh, no call of its own (marks repeat the call); normalized cell count, %; measured here: cell count, toxicity; reference of the scale not given here;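 cells exposed to compound for 48 h; stained nuclei by imaging scaled within each plate; lower means fewer cells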
HSV augment primary fold: second read-out of HSV augment, no call of its own (marks repeat the call); fold increase; compound at 10 µM; measured here: primary screen fold increase 10 uM; tested in PC3 cells;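 GFP signal in the first replicate; 1 = infected wells without compound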
Numbers without * were called inactive; i = inactive; ? = inconclusive; . = no result given.

SMILES	GALR2 ag	PKD1 inh	RGS16-Gao	Insulin prom inh	Insulin prom inh cell count	HSV augment	HSV augment primary fold
O=C(CCCn1c(SCc2cc(=O)n3ccccc3n2)nc2ccccc2c1=O)NCC1CCCO1 (stereo not given)	.	-5.5	95.3	25.0	91.6	i	0.95
COc1ccc(C(=O)C2CCCN(C3Cc4ccccc4C3)C2)c(OC)c1 (stereo not given)	.	-1.2	98.0	-60.0	74.0	i	0.79
CCC(C)NCCCOc1cc(Cl)ccc1Cl (stereo not given)	-1.9	-8.4	104.0	-46.4	96.4	i	0.99
CCN1C(=O)c2ccccc2S(=O)(=O)c2ccc(C(=O)NCc3cccnc3)cc21	-2.0	-6.1	104.9	.	.	i	0.77
CCOC(=O)C1CCN(C(=O)c2ccc(OCC)c(OCC)c2)CC1	-1.7	-8.9	100.2	-25.7	72.3	i	1.03
N/C(CC(=O)Nc1ccc(F)cc1F)=N\OC(=O)c1cccs1	.	.	111.1	.	.	i	0.99
O=C(c1ccco1)N1CCN(C(=O)c2snc3ccc(Cl)cc23)CC1	-1.6	-9.6	97.1	.	.	i	0.89
CC(C)OC(=O)c1ccc(N2C(=O)C3CC=CCC3C2=O)cc1 (stereo not given)	-1.0	-7.6	104.2	-8.1	174.7	i	0.84
CC1CC2(NC(=O)NC2=O)C(C)CN1C (stereo not given)	-0.9	-4.6	100.3	-248.8	112.6	i	1.01
CCC(C)NS(=O)(=O)c1ccc(OCC(=O)NCc2ccc(OC)cc2)cc1 (stereo not given)	.	-11.1	108.4	.	.	i	1.01
CCc1cccc(NC(=O)CN(c2ccc(OC)cc2)S(=O)(=O)c2c(C)n[nH]c2C)c1	-1.9	2.4	99.8	.	.	i	1.09
Nc1sc(-c2ccccc2)c(Cc2ccccc2)c1C(=O)O	.	1.8	104.6	63.6	145.1	i	1.02
O=C1N=C(N2CCc3ccccc3C2)S/C1=C\c1ccc(O)cc1	.	.	108.3	.	.	i	1.28
N#CCCN(C(=O)COc1ccc(Cl)cc1Cl)c1ccccc1	-0.9	-8.9	99.0	-13.3	120.3	i	0.95
Clc1ccc(CCNc2ncnc3nc[nH]c23)cc1	-3.8	-1.8	100.7	.	.	i	0.9
CC1=CC(C)(C)N2C(=O)C3(C(C#N)=C(N)OC4=C3C(=O)CC(C)(C)C4)c3c(C)c(C)cc1c32 (stereo not given)	1.1	-0.5	105.2	-56.7	90.3	i	0.89
C/C(=N\NC(=O)c1ccncc1)C12CC3CC(CC(C3)C1)C2	-1.3	-3.2	90.5	38.5	128.9	i	0.78
Cc1c(NC(=O)CSc2nc3ccccc3n2C)c(=O)n(-c2ccccc2)n1C	-4.0	-8.8	107.8	-6.7	102.9	i	0.98
CC(=O)Nc1cccc(NC(=O)Cc2nc(-c3ccccc3)sc2-c2ccc(C)cc2)c1	-0.6	-2.3	93.0	.	.	i	0.92
O=[N+]([O-])c1ccc(N=Cc2c(O)ccc3ccccc23)cc1	.	.	98.9	.	.	i	0.99
COc1ccc(Nc2ncnc3c2cnn3-c2ccccc2)cc1OC	-1.3	-7.0	100.7	.	.	i	0.99
CC(=O)c1sc(NC(=O)CCOc2ccccc2)nc1C	.	-9.5	161.6	.	.	i	1.04
CCN1CCN(Cc2c(O)c(Cl)cc3c(C)cc(=O)oc23)CC1	1.0	-2.9	103.2	.	.	i	1.07
O=C(CSc1ccccc1)N/N=C/c1ccccc1O	.	1.9	90.5	0.0	115.8	i	0.83
Cc1cc2ncn(C3CC(=O)N(Cc4ccccc4)C3=O)c2cc1C (stereo not given)	-1.2	-5.6	100.9	38.9	118.3	i	0.89
O=C(Nc1ccc(N2CCOCC2)c(Cl)c1)c1cccc(F)c1	-0.5	-3.1	57.8	17.6	127.2	i	0.87
O=c1ccnc(Nc2ccc3c(c2)OCCO3)[nH]1	.	3.5	100.4	.	.	i	1.22
CCOc1cc(NC(=S)NCC2CCCO2)c(OCC)cc1NC(=O)c1ccccc1F (stereo not given)	.	-1.9	104.0	.	.	i	0.88
Cc1ccc(-c2noc(-c3cccs3)n2)cc1	-0.5	-7.7	106.0	-12.1	79.7	i	0.88
COC(=O)C1CCN(Cc2cc(=O)oc3cc(OC)ccc23)CC1	-0.4	-11.1	100.8	.	.	i	1
C=CCNC(=S)NCc1ccccc1	.	.	93.3	.	.	i	0.96
Cc1noc(C)c1NC(=O)NC(c1ccccc1)c1ccccc1	.	.	100.5	.	.	i	1
COc1cc(C(=O)OCC(=O)NC2CCCC2)cc(NC(=O)c2ccco2)c1OC	-1.9	-5.6	102.2	.	.	i	1.1
CCc1ccccc1NC(=O)CN(C)C(=O)CSc1nnc(Nc2cccc(C)c2C)s1	-2.1	-11.7	101.4	-28.6	95.3	i	0.95
CCOC(=O)C1(C(F)(F)F)N=C(N(C)C)OC(N(C)C)=N1	-0.2	2.3	101.8	16.7	87.6	i	0.92
Cc1cnc(NC(=O)CSc2nnc(Cc3ccccc3)n2C)s1	-1.1	-2.3	102.6	-18.8	70.5	i	0.95
COc1ccc(CC(=O)OCC(=O)Nc2ccc(C(=O)Nc3ccc(OC)cc3)cc2)cc1	.	-8.3	101.6	.	.	i	0.95
Cc1ccc(S(=O)(=O)Nc2nc3ccccc3nc2NCC2CCCO2)c(C)c1 (stereo not given)	.	.	101.6	.	.	i	0.93
CCCSc1nc2c(cnn2-c2ccc(C)cc2)c(=O)[nH]1	-2.9	-5.7	100.7	.	.	i	0.95
CCOC(=O)c1[nH]c2cc3c(cc2c1CCCN1C(=O)c2ccccc2C1=O)OCCO3	-2.1	-2.0	99.8	45.5	112.2	i	0.86
CCN(C(=O)c1ccc2c(Cl)c3c(nc2c1)CCC3)c1ccc(C)c(C)c1	0.7	-2.8	101.2	-45.0	122.4	i	0.94
O=C(CC1SC2=NCCN2C1=O)Nc1ccc(Cl)cc1 (stereo not given)	-1.3	-5.2	92.3	76.9*	80.3*	i	0.8
O=C(O)Cn1cc(/C=C2/NC(=O)N(c3ccc(Cl)cc3)C2=O)c2ccccc21	.	-8.9	93.2	18.2	66.7	i	1.04
CCN1CCN(CCn2c(=S)[nH]c3ccccc3c2=O)CC1	-2.0	6.1	116.9	7.4	127.9	i	0.983
Cc1cccc(NS(=O)(=O)Cc2ccccc2)n1	-3.4	-1.0	101.6	-222.2	66.3	i	1.05
O=C(CN1N=C(c2ccccc2)CCC1=O)NCCCN1CCc2ccccc2C1	-1.1	-6.9	56.4	-3.3	67.7	i	1.01
C#Cc1ccc([C@H]2C=C(C(=O)N3CCN(Cc4ccccc4)CC3)O[C@@H](OCC)[C@@H]2CCCO)cc1	.	-2.6	103.6	.	.	i	1.04
Cc1ccc(C)c(NC(=O)Cc2nc(CCl)cs2)c1	-0.7	-9.1	96.4	20.0	112.4	i	0.82
CCOc1ccc(Cc2nc(C)c(CC(=O)N3CCCCC3)c(=O)[nH]2)cc1	-2.0	0.8	111.3	.	.	i	0.86
O=C(/C=C\Nc1ccc(S(=O)(=O)Nc2ncccn2)cc1)c1ccccc1	.	.	100.1	.	.	i	1.06

3 compounds out of the list, ordered by number of heavy atoms, ascending.
SMILES	GALR2 ag	PKD1 inh	RGS16-Gao	Insulin prom inh	Insulin prom inh cell count	HSV augment	HSV augment primary fold
Nc1sc(-c2ccccc2)c(Cc2ccccc2)c1C(=O)O	.	1.8	104.6	63.6	145.1	i	1.02
N/C(CC(=O)Nc1ccc(F)cc1F)=N\OC(=O)c1cccs1	.	.	111.1	.	.	i	0.99
Cc1c(NC(=O)CSc2nc3ccccc3n2C)c(=O)n(-c2ccccc2)n1C	-4.0	-8.8	107.8	-6.7	102.9	i	0.98

(continued)
SMILES	GALR2 ag	PKD1 inh	RGS16-Gao	Insulin prom inh	Insulin prom inh cell count	HSV augment	HSV augment primary fold
CCC1CCCCN1C(=O)COc1c(Br)cc(Br)c2cccnc12 (stereo not given)	.	-6.5	97.6	.	.	i	1.04
CC(C)OCCCn1c(SCC(=O)N2CCc3ccccc32)nc2ccccc2c1=O	-0.9	-3.1	99.8	-3.2	89.3	i	0.97
CN1C(=O)C(O)(C2COC(C)(C)CC2=O)c2ccccc21 (stereo not given)	-1.7	-5.0	97.8	-50.0	156.2	i	1.03
Cc1ccc(S(=O)(=O)NNc2nnc(C)c(=O)[nH]2)cc1	.	-1.6	108.6	.	.	i	1.01
Cc1cccc(OCC(=O)N2CCN(S(C)(=O)=O)CC2)c1	.	-7.0	92.6	.	.	i	0.97
CCCCn1c(SCC(=O)Nc2ccc3c(c2)OCO3)nc2c1c(=O)n(C)c(=O)n2C	0.1	5.0	100.0	11.8	95.3	i	0.9
CCSCc1nnc(SCC(=O)Nc2cc(F)ccc2C)n1C	.	-3.4	103.5	20.0	146.8	i	1.09
COCCN1C(=O)/C(=C/c2ccc(N3CCCC3)cc2C)SC1=S	.	9.8	109.5	-455.6	44.3	?	.
COc1ccc(N2C(=O)C(CC(=O)Nc3ccccc3)N(Cc3ccc(OC)c(OC)c3)C2=O)cc1 (stereo not given)	.	4.2	112.7	-33.3	79.5	i	0.91
COc1ccccc1-n1c(C)cc(/C=C2/C(=N)N3C(=NC2=O)SN=C3S(C)(=O)=O)c1C	.	1.4	94.1	36.4	156.8	i	1.02

Copied from the list:
CCC1CCCCN1C(=O)COc1c(Br)cc(Br)c2cccnc12 (stereo not given) – RGS16-Gao = 97.6
COc1ccc(N2C(=O)C(CC(=O)Nc3ccccc3)N(Cc3ccc(OC)c(OC)c3)C2=O)cc1 (stereo not given) – PKD1 inh = 4.2
COc1ccccc1-n1c(C)cc(/C=C2/C(=N)N3C(=NC2=O)SN=C3S(C)(=O)=O)c1C – Insulin prom inh cell count = 156.8
Cc1cccc(OCC(=O)N2CCN(S(C)(=O)=O)CC2)c1 – PKD1 inh = -7.0

Next entries:
SMILES	GALR2 ag	PKD1 inh	RGS16-Gao	Insulin prom inh	Insulin prom inh cell count	HSV augment	HSV augment primary fold
Cc1ccc(-n2c(C)cc(C(=O)CN3CCOCC3)c2C)cc1C	.	-1.1	104.3	14.3	65.7	i	0.99
Cc1[nH]nc2c1C1(CCN(C(=O)c3ccccc3)CC1)C(C#N)=C(N)O2	-0.2	-4.1	103.7	-31.4	82.6	i	0.7
CCOC(=O)/C(C(N)=NCCCO)=C(/O)c1ccccc1	-1.6	-9.5	103.2	5.7	123.5	i	1.1
Cc1ccc(C(c2nnnn2C2CCCC2)N2CCc3ccccc32)cc1 (stereo not given)	-1.2	1.9	106.4	.	.	i	1.03
Cn1c(NCc2ccco2)nc2c1c(=O)n(Cc1ccc(Br)cc1)c(=O)n2C	-3.1	-5.9	99.8	50.0	128.3	i	0.8
CCCCc1nc2ccccc2c(=O)n1NC(=O)c1c(O)c2c(n(CC(C)C)c1=O)CCCC2	0.3	-2.9	102.2	-25.0	52.5	i	0.96
CCOC(=O)c1cc(C)sc1NC(=O)c1ccc(Cl)s1	-2.4	-5.6	101.2	-57.1	93.6	i	1.07
COCCNC(=O)CSc1nc(-c2ccccc2)cs1	-2.7	-0.2	98.5	33.3	51.8	i	0.93
Cc1cc(C)n(-c2nnc3n2N=C(c2c[nH]c4ccccc24)CS3)n1	-1.1	-16.2	100.5	31.4	93.8	i	0.953
C=CCn1c(NS(=O)(=O)c2ccccc2)c(S(=O)(=O)c2ccc(C)cc2)c2nc3ccccc3nc21	2.6	1.5	101.0	22.2	126.8	i	1.09
CC(=O)c1c(C)[nH]c(C(=O)OCC(=O)N2CC(=O)Nc3ccccc32)c1C	-1.9	-2.5	44.7	-26.7	58.7	i	1.01
Cc1ccc2nc(SCC(=O)c3cc(C)n(C)c3C)[nH]c2c1	-2.6	11.2	91.4	18.8	35.6	i	0.953
COc1nc(Nc2ccc([N+](=O)[O-])cc2)nc(NC(C)C)n1	0.0	-2.5	111.1	-3.9	111.9	i	0.85
CCCCn1cc(SCC(=O)O)c2ccccc21	-2.2	1.4	97.9	62.1	147.9	i	1.06
Cc1ccccc1-c1nnc(NC(=O)c2cc3ccccc3oc2=O)s1	-1.7	-14.0	106.2	7.3	95.1	i	0.81
CCn1c(C)nc2cc(C(=O)NNC(=O)Nc3cccc(Cl)c3)ccc21	.	5.6	100.7	16.7	105.0	i	1.06
CCOC(=O)NC(C(Cl)(Cl)Cl)S(=O)(=O)c1ccccc1 (stereo not given)	.	.	105.3	.	.	i	0.9
COc1cc(/C=N/NC(=O)c2ccoc2C)cc(OC)c1OC	-2.2	4.3	.	-3.3	71.0	i	0.81
Cc1cc(C)cc(-n2cccc2/C=C2/C(=N)N3C(=NC2=O)SN=C3S(C)(=O)=O)c1	.	-4.6	99.5	52.9	91.3	i	0.92

Not a hit list. Share with any hit: about 1.2%.
